High-throughput results as filed in PubChem.
VDR inhibitor = vitamin D3 receptor (human) inhibition. 0.93% of 400,000 active. Potency, µM, without a hit: max response, negative = inhibition, usual class: inhibitors. VDR-SRC2-3 peptide fluorescence polarization, 2 h. P11473. AID 504847; active = well fitted inhibition curve with a large enough effect; inconclusive = small, poorly fitted or top-dose-only effect, or another doubt; inactive = no such curve, though single readings can be large or run the other way; also: series mostly up to about 120 µM
Target sequence (P11473 whole entry, looked up): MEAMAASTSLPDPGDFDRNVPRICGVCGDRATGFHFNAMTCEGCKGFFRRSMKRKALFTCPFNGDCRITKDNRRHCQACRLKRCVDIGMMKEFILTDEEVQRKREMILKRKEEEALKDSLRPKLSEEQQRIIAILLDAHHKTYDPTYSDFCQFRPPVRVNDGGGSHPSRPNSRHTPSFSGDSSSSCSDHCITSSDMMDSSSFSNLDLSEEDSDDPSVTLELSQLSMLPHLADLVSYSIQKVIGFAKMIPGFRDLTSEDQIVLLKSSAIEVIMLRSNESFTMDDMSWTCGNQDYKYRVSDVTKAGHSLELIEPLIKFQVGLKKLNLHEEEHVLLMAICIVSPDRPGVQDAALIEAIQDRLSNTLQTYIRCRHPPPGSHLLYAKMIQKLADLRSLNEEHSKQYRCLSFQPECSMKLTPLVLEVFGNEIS
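Reagent solutions, kept cold and dark, are dispensed first; compounds are then pinned in at 23 nl, plates briefly spun, and incubated 2 h at ambient temperature. Inhibition of VDR–SRC2-3 peptide binding is read by fluorescence polarization.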
* marks the source's active call; other numbers are inactive results; ? = inconclusive; & = joins results of further samples; [ ] = dose if it differs, or a comment. % is scaled to controls: 0 for no effect and ±100 for the full control effect; potency is read from the fitted curve at half-maximal effect. The list is partial. The share of hits here may be higher or lower than overall.

SMILES | VDR inhibitor
CCOC(=O)N1CCN(CC(O)COc2ccc(C(C)C)c(C)c2)CC1 (stereo not drawn) | 0.5%
Nc1nnc(SCCOc2ccccc2)s1 | 13.3%
CCN(CCCCN1C(=O)c2ccccc2C1=O)c1ccc2c(c1)C(=O)N(C)C2=O | 9.3%
COc1ccc(N(C(=O)COc2ccccc2OC)S(=O)(=O)c2ccc(Cl)cc2)cc1 | -11.4%
Cc1ccc(-n2c(SCC(=O)NCc3ccco3)nc3sc(C)c(C)c3c2=O)cc1 | -3.4%
O=C(Nc1ccccc1N1CCOCC1)c1ccc2c(c1)OCCO2 | -9.0%
S=c1[nH]nc(-c2cc3ccccc3o2)n1Cc1ccccc1 | -11.5%
O=C(O)c1ccc(N=NN2CCOCC2)cc1 | 14.8%
O=C(c1ccc(CSc2ccccc2)cc1)N1CCCCCC1 | -7.1%
COc1ccc(C(CNC(=O)CNC(=O)c2ccccc2)N2CCCC2)cc1 (stereo not drawn) | 2.0%
Cc1ccc(Cn2cc(CCC(=O)NC3CCCCC3)c3ccccc32)cc1 | 1.2%
COc1ccccc1/C=C1\SC(=O)N(CCC(=O)NCCCn2ccnc2)C1=O | 9.8%
Cc1ccc2c(c1)-c1cc(C)nn1C(c1sccc1C)N2 (stereo not drawn) | 19.0%
CCOC(=O)c1ccc(N2C(=O)c3n[nH]c(C)c3C2c2ccc(C(C)(C)C)cc2)cc1 (stereo not drawn) | -25.4%
CCCC(=O)N1CCN(C2=NS(=O)(=O)c3ccccc32)CC1 | 6.1%
O=C(N/N=C/c1cc2c(cc1Br)OCO2)c1ccccn1 | -4.3%
COc1ccc(N2CC3=C(C2=O)C(c2ccc(Br)cc2)NC(=O)N3C)cc1 (stereo not drawn) | 9.0%
COc1ccc(NS(=O)(=O)c2cccc(N/C(=N\S(=O)(=O)c3ccccc3)c3ccc(F)cc3)c2)cc1 | -0.6%
Cc1ccc(Cl)cc1NC(=O)c1cc(NC(=O)C2CCCCC2C(=O)O)ccc1N1CCOCC1 (stereo not drawn) | -26.2%
COCCNC(=S)N/N=C(\C)c1ccc(C)c([N+](=O)[O-])c1 | -14.3%
CS(=O)(=O)N(CC(=O)N1CCN(c2ccccc2F)CC1)c1cc(C(F)(F)F)ccc1Cl | -1.6%
O=C(/C=C/c1ccc(S(=O)(=O)N2CCOCC2)cc1)NC(CO)C(O)c1ccc([N+](=O)[O-])cc1 (stereo not drawn) | -13.5%
Cc1cc(C)cc(Oc2coc3cc(OC(=O)c4cccnc4)ccc3c2=O)c1 | -26.6%
CC1(CC(=O)O)SC(=O)NC1=O (stereo not drawn) | 16.3%
COc1ccc(-n2cc(-c3ccccc3)nc2SC)cc1 | -5.9%
COc1ccc(N(CC(=O)Nc2ccccc2C)S(=O)(=O)c2c(C)[nH]c(=O)[nH]c2=O)cc1 | 3.2%
Cc1ccc(S(=O)(=O)N2CCCCC2)cc1NC(=O)COC(=O)c1cccn1C | 2.1%
C/C(Cn1nnc2ccccc21)=N\OC(=O)c1ccccc1C | ?
O=C(NC(=S)Nc1ccc(S(=O)(=O)NC2CCCCC2)cc1)c1cccs1 | 2.3%
COc1ccccc1N1CCN(C2CCCN(C(=O)CCc3cnccn3)C2)CC1 (stereo not drawn) | -21.1%
COc1ccc(Nc2ncnc3scc(-c4ccc(OC)cc4)c23)cc1 | 12.3%
COC(=O)NNC(=O)c1ccc(C)cc1 | 11.7%
CC(C)(C)c1ccc(S(=O)(=O)NCC(=O)Nc2sc3c(c2C(N)=O)CCCC3)cc1 | -6.7%
O=C(COC(=O)CN1C(=O)c2ccccc2C1=O)Nc1ncc(Cl)cc1Cl | 19.3%
O=C(CN1CCCN(S(=O)(=O)c2ccc(Br)cc2)CC1)Nc1cccc(C(F)(F)F)c1 | -7.7%
Cc1ccc(NC2=NCC(=O)N2Cc2ccccc2)c(C)c1 | 12.8%
COc1cc(C2N(Cc3ccccc3)CCN2Cc2ccccc2)ccc1OC(C)=O | 4.8%
COc1ccc(NC(=O)Nc2nnc(N3CCCCCC3)s2)c(OC)c1 | 27.2%
COc1ccccc1NC(=O)C1CCN(S(=O)(=O)c2cccs2)CC1 | -9.2%
COc1ccc(C=Nc2cccc3ncccc23)cc1 | -6.8%
CC(C)OC(=O)C(=O)NNc1ccccc1 | 8.7%
C=CCN1C(=O)c2ccc(C(=O)OCC(=O)N(CC)C3CCS(=O)(=O)C3)cc2C1=O (stereo not drawn) | 10.1%
O=c1nc2n(-c3ccccc3F)c3ccccc3cc-2c(=O)[nH]1 | -10.1%
CSc1nc(N)c2c(n1)OC(N)=C(C#N)C2c1cccnc1 (stereo not drawn) | 10.3%
O=C(NCCC1=CCCCC1)c1ccc2c(c1)N(Cc1cccc(Cl)c1)C(=O)c1ccccc1S2=O (stereo not drawn) | -1.9%
CC(C)(C)NC(=O)C(c1ccco1)N(C(=O)c1csnn1)c1ccccc1 (stereo not drawn) | -1.1%
COc1cc(C2Nc3ccc4ncccc4c3C3=C2C(=O)CC(C)(C)C3)cc(OC)c1O (stereo not drawn) | -8.1%
Cc1noc(/C=C/c2ccccc2F)c1S(=O)(=O)N1CCC(C(=O)N(C)Cc2ccco2)CC1 | 13.7%
CSCCC(C(=O)N(C)CC(=O)Nc1cccc(F)c1)N1C(=O)c2ccccc2C1=O (stereo not drawn) | 5.1%
CC(=O)N1N=C(c2ccc(C)cc2)OC1c1ccc(Br)cc1 (stereo not drawn) | 11.2%
C#CCOCCOCCOCCNc1nc(N2CCN(C(=O)[C@H](CC(N)=O)n3cc(C(N)[C@@H](C)CC)nn3)CC2)nc(N2CCN(C(=O)[C@H](CCCCN)n3cc([C@@H](N)CC(N)=O)nn3)CC2)n1 (stereo partly drawn) | -14.3%
CN(Cc1ccccc1)C(=O)Cn1ncc2c3ccccc3n(Cc3cccc(Cl)c3)c2c1=O | 7.2%
COc1ccc(Br)cc1C1NC(=O)c2c(sc3c2CCN(C)C3)N1 (stereo not drawn) | 3.9%
O=C(CN1C(=O)NC(CCc2ccccc2)C1=O)N1CCCCCC1 (stereo not drawn) | -19.8%
O=C1NCCN(Cc2ccc(F)cc2)C1CC(=O)N1CC=C(c2ccccc2)CC1 (stereo not drawn) | -6.9%
COc1ccc2c(c1)c(C(=O)O)c(C)n2CCc1ccc(OC)c(OC)c1 | -17.7%
CCc1nnc(NC(=O)C2CC(=O)N(C3CCCCC3)C2)s1 (stereo not drawn) | -3.8%
CC1=C(C(=O)OC2CCCC2)C(c2c(Cl)cccc2Cl)CC(=O)N1 (stereo not drawn) | 10.2%
O=C(O)C(O)C(O)(Cc1ccc(O)cc1)C(=O)O (stereo not drawn) | 4.7%
Cn1ccc(NC(=O)Nc2ccc(Cl)cc2Cl)n1 | -7.2%

(further entries)
SMILES | VDR inhibitor
Cc1onc(-c2ccccc2)c1C(=O)Nc1ccc(S(=O)(=O)NC(C)(C)C)cc1 | 5.2%
O=c1c2cn(Cc3ccccc3)c3ccccc3c-2nn1Cc1ccc(F)cc1Cl | 10.0%
CCOC(=O)c1cccc(NC(=O)C2CCCN2S(=O)(=O)c2cccc3cccnc23)c1 (stereo not drawn) | -13.7%
COc1ccc(OC)c(NC(=O)c2ccc(OC3CSC3)cc2)c1 | ?
O=S(=O)(c1ccc(Cl)cc1)N1CCSC1c1ccco1 (stereo not drawn) | -10.1%
COc1cc(OCC(=O)NC(C)C)cc2c1C(=O)O[C@@H](C)CCCC(=O)CCCCC2 | -0.5%
CCCCn1c(N)c(N(C)C(=O)c2cccc(-n3cnnn3)c2)c(=O)[nH]c1=O | 24.3%
COc1ccc(OC)c(CNC(=O)C2CCN(c3ncnc4c3nc3n4CCCCC3)CC2)c1 | -2.9%
O=C(/C=C/c1ccc(Br)cc1)N1CCN(c2cccc(C(F)(F)F)c2)CC1 | 6.9%
CCc1ccccc1NC(=O)CCNS(=O)(=O)c1ccc2c(c1)CCN2C(=O)C1CC1 | 5.8%
O=C(NCCn1cc(SCc2ccccc2F)c2ccccc21)c1cccs1 | 2.2%
COc1nc(N(C)S(=O)(=O)c2ccc(C)cc2)nc(C)c1Cl | 14.6%

Rewritten with each value named: 4 of the compounds above
O=C(/C=C/c1ccc(Br)cc1)N1CCN(c2cccc(C(F)(F)F)c2)CC1
- VDR inhibitor = 6.9%
O=C(NCCn1cc(SCc2ccccc2F)c2ccccc21)c1cccs1
- VDR inhibitor = 2.2%
O=c1c2cn(Cc3ccccc3)c3ccccc3c-2nn1Cc1ccc(F)cc1Cl
- VDR inhibitor = 10.0%
O=S(=O)(c1ccc(Cl)cc1)N1CCSC1c1ccco1 (stereo not drawn)
- VDR inhibitor = -10.1%

More records:
SMILES | VDR inhibitor
CCOc1ccccc1N1CCN(C(=O)c2ccc(OCC(=O)N3CCOCC3)c(OC)c2)CC1 | 2.4%
O=[N+]([O-])c1cc(C(F)(F)F)ccc1NCCNC(=S)Nc1ccc(Cl)cc1 | 0.2%
CCN1CCS/C1=C\C=C\C1=[N+](CC)CCS1 | -3.5%
CCCCc1nc2cc(C(=O)NCCc3c(C)n[nH]c3C)ccc2o1 | -8.2%
COc1ccccc1N1CCN(C(=S)Nc2ccccc2)CC1 | 16.1%
Cc1cccc(N=Cc2cc(Br)cc(Cl)c2O)c1 | -20.7%
Cc1ccccc1NC(=O)C1CCCN(S(=O)(=O)c2cccc3cccnc23)C1 (stereo not drawn) | -4.3%
CCN1CCc2c(sc(NC(=O)c3ccc(C(=O)c4ccccc4)cc3)c2C(N)=O)C1 | 21.5%
Cc1cccc(NC(=O)COC(=O)c2ccc3c(c2)OCO3)c1C | -2.6%
COc1ccccc1-n1c(-c2cccnc2)n[nH]c1=S | 5.2%
Cc1nn(-c2ccccc2)c(C)c1NS(=O)(=O)c1ccccc1 | 12.6%
COc1cc(O)c(C(C)=O)c(OC)c1 | -14.6%&0.7%

Some of these compounds in order of SMILES length, falling.
SMILES | VDR inhibitor
CC(C)(C)NC(=O)C(c1ccco1)N(C(=O)c1csnn1)c1ccccc1 (stereo not drawn) | -1.1%
O=C(Nc1ccccc1N1CCOCC1)c1ccc2c(c1)OCCO2 | -9.0%
COc1ccccc1N1CCN(C(=S)Nc2ccccc2)CC1 | 16.1%

Continued.
SMILES | VDR inhibitor
O=C(NN=Cc1cc(=O)[nH]c(=O)[nH]1)c1ccncc1 | -13.7%
Cc1cccc(S(=O)(=O)N/N=c2\sc3ccccc3n2C)c1 | 25.5%
CCN(C[C@H]1N[C@@](CC)(C(=O)OC)[C@H]2C(=O)N(Cc3ccccc3)C(=O)[C@@H]12)C(=O)COC | 0.7%
O=C(NC1=NCCS1)C1CCN(S(=O)(=O)c2ccc(Cl)cc2)CC1 | 2.9%
CCc1noc(C)c1C(=O)OC(C)C(=O)Nc1ccc2c(c1)OCO2 (stereo not drawn) | -5.6%
COCCCn1c(SCC(=O)Nc2ccc(C(=O)OC)cc2)nc2ccccc2c1=O | -0.1%
CCCN(c1ccc(C(C)C)cc1)S(=O)(=O)c1ccc2c(c1)CCN2C(=O)CC | -10.8%
COC(=O)c1c(NC(=O)C2CCC2)sc(C(=O)N(C)C)c1C | -4.0%
COc1ccccc1Cn1cccc1C=O | -14.2%
C=CCNC(=O)NC(=O)COC(=O)C(C)Oc1ccc(Cl)cc1Cl (stereo not drawn) | 7.4%
COc1ccc(NS(=O)(=O)c2ccc(NC(=S)NCC3CCCO3)cc2)cc1 (stereo not drawn) | -4.7%
Cc1cc([N+](=O)[O-])ccc1NCc1ccc2c(c1)OCCO2 | -2.6%
CCC1CCCCN1CCCNC(=O)C1CCC(CNS(=O)(=O)c2c(C)cc(C)cc2C)CC1 (stereo not drawn) | -15.5%
CCOc1ccc(OCc2nnc(SCC(=O)NC3CCS(=O)(=O)C3)n2-c2ccc(Cl)cc2)cc1 (stereo not drawn) | 4.1%
CCOc1ccc(C(=O)NC2CCN(S(=O)(=O)CC)CC2)cc1 | 12.5%
N#Cc1c(N)n(CCOC(=O)c2cccc([N+](=O)[O-])c2)c2nc3ccccc3nc12 | 0.9%
Cc1ccc(NC(=O)CSCC(=O)Nc2ccc(S(=O)(=O)N3CCOCC3)cc2)cc1 | 7.8%
Cc1ccc(Cl)c2c1=NC(=O)C=2c1[nH]c(=S)[nH]c1O | ?
Fc1ccccc1-c1cc2ccccc2cn1 | -5.6%
O=C(CCSCc1ccccc1F)NCCc1ccccc1 | 153.0%[activator]
COc1ccc(CC(=O)Nc2ccc(-c3nnc(-c4ccc(C)cc4)o3)cc2)cc1 | -4.8%
Cc1cc(C(=O)Nc2cccc(F)c2)c2c(C)nn(-c3cccc(Cl)c3C)c2n1 | -7.3%
CN(C)CCn1c(=S)[nH]c2ccc(Cl)cc2c1=O | -4.8%
COC(=O)N/N=C/c1cc(Cl)cc(Cl)c1OCc1ccccc1 | -12.8%
COc1ccc(C(=O)Nc2cccc(C)c2)cc1S(=O)(=O)N1CCOCC1 | 4.1%
c1ccc(Cn2nnnc2CN2CCCC2)cc1 | -9.2%
COc1ccc(C=NNC(=O)c2cc(C)oc2C)cc1O | -13.7%
O=[N+]([O-])c1ccc(-c2c(-c3ccccc3)ncc3cc(F)ccc23)cc1 | -15.3%
CC1=C(c2ccc(C)cc2)S(=O)(=O)NC1=NCCCN1CCN(c2ccccc2F)CC1 | 5.2%
O=C1/C(=C/c2ccc(O)c(O)c2)SC(=S)N1Nc1ccccc1 | 12.4%
COCCCn1c(=O)c2sccc2n2c(CCCC(=O)N3CCN(c4ccccn4)CC3)nnc12 | -10.9%
Cc1ccc(-c2nnc(Nc3ccc(C(=O)N(C)C)cc3)c3ccccc23)cc1S(N)(=O)=O | 10.0%
CCCCc1ccc(NC(=O)C2(C)Cc3ccccc3C(=O)O2)cc1 (stereo not drawn) | 22.6%
Cc1cc(C)c(NC(=O)CSc2nc3[nH]ncc3c(=O)[nH]2)c(C)c1 | -13.3%
